From PubChem
HIV TAR-Tat – HIV-1 TAR-Tat binding disruption; HIV-1 TAR RNA, Tat peptide displacement FRET; active compounds read high; z-score (concentration not given with the values); 100,000 compounds, 0.6% hits; AID 1259389;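 also: score is relative to mean and SD of negative controls; some compounds called inactive have numbers as strong as hits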
CDC25B CDK2 inh – human CDC25B-CDK2/CyclinA binding inhibition; z-score (no concentration beside the values); P30305+P24941; HTRF CDC25B-CDK2/CyclinA binding, anti-His/anti-Flag; active compounds read high; 94,000 compounds, 0.72% hits;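 also: score is relative to mean and SD of negative controls; strong numbers were not always called active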
An asterisk follows results filed as active; . = no result given.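 The calls were made as follows: active = z-score from 3 up in half or more of its runs; inactive = the rest.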

SMILES	HIV TAR-Tat	CDC25B CDK2 inh
O=C(NCc1ccco1)c1cnn2c1NC(c1ccc(Br)cc1)CC2C(F)(F)F (stereo not drawn)	0.53	-1.1
C=CCN1C(=O)/C(=C/c2ccc(OC(=O)C34CC5CC(CC(C5)C3)C4)c(OC)c2)SC1=S	.	-2.3
Nc1ccc(S(=O)(=O)c2ccc(Cl)cc2)cc1	0.54	0.71
CCOC(=O)C1=C(C)Nc2nc(SCC)nn2C1c1ccc(Cl)cc1 (stereo not drawn)	-0.66	-1
Cc1cc2oc3c(c(=O)c2cc1C)C(c1ccc(Cl)cc1)N(CCCN(C)C)C3=O (stereo not drawn)	0.85	-1.6
O=C(COc1ccc(Br)cc1)Nc1ccc2nsnc2c1	0.87	-2.1
O=C(Cn1cc(SCc2ccccc2Cl)c2ccccc21)N1CCCC1	-1.1	.
Cc1ccc(OCC(O)CN2CCN(CCO)CC2)c(C)c1 (stereo not drawn)	1.5	3.9
COC(=O)c1c[nH]n2c(NC3CCCCCC3)c(-c3ccc(F)cc3)nc12	.	-1.3
CCc1ccccc1N1CC(O)=C(c2nc3ccccc3s2)C1=N	1.2	0.83
COc1ccc(C2CC(c3cccs3)=NN2C(=O)CCC(=O)O)cc1 (stereo not drawn)	1.2	-1.7
O=C1C(=O)N(CCCn2ccnc2)C(c2ccncc2)/C1=C(\O)c1ccc(F)cc1 (stereo not drawn)	-2	-1.5
CCOC(=O)C(NC(=O)c1ccccc1Cl)(Nc1ccccn1)C(F)(F)F (stereo not drawn)	.	-1.4
Cn1c(SCc2nc(-c3ccc(Br)cc3)no2)nnc1-c1ccco1	0.26	-1.2
CSc1ncc(Cl)c(C(=O)N(Cc2ccc(C)cc2)C2CCS(=O)(=O)C2)n1 (stereo not drawn)	2.2	-1.6

2 records picked at random from those above, as already listed:
SMILES	HIV TAR-Tat	CDC25B CDK2 inh
O=C1C(=O)N(CCCn2ccnc2)C(c2ccncc2)/C1=C(\O)c1ccc(F)cc1 (stereo not drawn)	-2	-1.5
CCOC(=O)C(NC(=O)c1ccccc1Cl)(Nc1ccccn1)C(F)(F)F (stereo not drawn)	.	-1.4

(continued)
SMILES	HIV TAR-Tat	CDC25B CDK2 inh
O=C(Nc1nccs1)C1(c2cccs2)CCOCC1	2.2	.
O=C(Cn1cnc(S(=O)(=O)N2CCc3ccccc32)c1)Nc1ccc(Br)cc1F	0.24	.
O=S(=O)(Nc1cc(C(F)(F)F)ccc1F)c1cc(C(F)(F)F)ccc1Cl	.	-1.7
Cc1cc2c(cc1S(=O)(=O)C(C)CC(=O)N1CCCC3CCCCC31)OCC(=O)N2 (stereo not drawn)	-0.82	.
O=C(c1ccc2c(c1)nc1n2CCOC1)N1CCN(c2ccccn2)CC1	1.2	.
NS(=O)(=O)c1ccc(NC(=O)c2nn(-c3cccc(Cl)c3)ccc2=O)cc1	-0.99	0.76
N#Cc1nc(/C=C/c2cccs2)oc1N1CCNCC1	-1.5	9.3*
O=C1c2cccnc2C(=O)N1CCc1ccc(S(=O)(=O)Nc2cc(F)ccc2F)cc1	1.7	.
CC(=O)c1ccn(S(=O)(=O)c2ccccc2)c1	.	-2
CCCCCOc1ccc(/C=N\Nc2nc(-c3ccccc3)cc(-c3ccccc3)n2)cc1	.	-1.2
CN(C)CCNC(=O)c1[nH]c2ccccc2c1Sc1ccc(Cl)cc1	3.3	-1.1
Cc1ccccc1N1CSC2=C(C#N)C(c3ccc(F)cc3)CC(=O)N2C1 (stereo not drawn)	-1.9	4.4*
O=C(CC1(O)C(=O)Nc2ccc(Cl)cc21)c1ccc(-c2ccccc2)cc1 (stereo not drawn)	.	0.1
N#Cc1ccc(-c2ccon2)s1	.	-1.9
Clc1ccccc1-c1nnc2sc(COc3ccccc3)nn12	1.7	1.5
Cn1c(=O)c2c(nc(NCCO)n2CCCc2ccccc2)n(C)c1=O	-0.4	-0.55
CCN(CC)S(=O)(=O)c1ccc2c(c1)N(CC(=O)N1CC(C)CC(C)C1)C(=O)CO2 (stereo not drawn)	0.98	1.5
Brc1cnc(N2CCOCC2)nc1	0.61	-0.6
O=C(Nc1ccccc1C(=O)O)c1ccc2ccccc2n1	.	-1.4
CCOC(=O)C1CCCCN1C(=O)Cn1cnc(S(=O)(=O)N2CCOCC2)c1 (stereo not drawn)	1.5	.
Cc1cc(C(=O)O/N=C(\N)CSc2ncccc2C(F)(F)F)no1	.	-1.3
COc1c(-c2ccccc2)oc2c(OC)cccc2c1=O	0.15	.
CN(c1ccccc1)S(=O)(=O)c1nnc(NC(=O)c2cccs2)s1	0.24	-1.3
CCCS(=O)(=O)c1oc(-c2ccc(F)cc2)nc1S(=O)(=O)c1ccccc1	-0.04	-2.9
COC(=O)c1ccc2c(=O)n(CCCN3CCCC3=O)c(=S)[nH]c2c1	.	-1.4
NC1=NC(Cc2ccccc2)CC(=O)N1 (stereo not drawn)	-0.35	-0.31
O=S(=O)(NCc1nc(-c2ccccc2)no1)c1ccc(Cl)cc1	1.1	1.9
Cc1cccc(N2CCN(c3nc4ccccc4n4cnnc34)CC2C)c1 (stereo not drawn)	-0.62	-0.98
COc1ccc(-n2ccsc2=S)cc1	2.3	0.21
O=[N+]([O-])c1c(Nc2ccc(Cl)cc2)ncnc1Nc1ccc(Cl)cc1	.	-1.2
O=C(Nc1sc2c(c1C(=O)O)CCCC2)c1cc2ccccc2o1	4.3	-0.2
O=C(Nc1nc2ccccc2s1)c1cc2ccc3cccnc3c2[nH]1	0	.
Cc1nc2cc(-c3ccc(Cl)cc3)nn2c(C)c1CCC(=O)NC(C)C	.	-2.6
COc1ccccc1-c1nnc2sc(COc3ccc(Br)cc3)nn12	2.6	-0.72
O=C(Nc1nnc(-c2ccc3c(c2)OCO3)s1)c1ccc(Br)cc1	1.6	-0.73
O=C(c1ccccc1)N1CCCC(c2nc3c(nnn3Cc3ccc(-c4ccccc4)cc3)c(=O)[nH]2)C1 (stereo not drawn)	0.85	-4.9
Cc1csc(NC(=O)C(CC(C)C)NS(=O)(=O)c2ccc3nc(C)sc3c2)n1 (stereo not drawn)	2.1	-0.33
CN(C)c1ccc(-c2nc3cnccn3c2NC2CCCCC2)cc1	-5.1	-1.9
COc1cc(C(=O)O)c2c(c1C)OC(=O)c1c(C)cc(O)c(C=O)c1O2	2.3	.
Cc1ccc(NC2c3ncccc3C(=O)N2C2CCCCC2)cc1C (stereo not drawn)	2.3	-1.9
CSc1cccc(NS(=O)(=O)c2ccc3c(c2)CC(C)N3C(=O)C2CCC2)c1 (stereo not drawn)	-1.4	.
Cc1ccc(S(=O)(=O)c2nc(S(C)(=O)=O)sc2N2CCCCC2C)cc1 (stereo not drawn)	0.74	-0.55
Cc1c(C)n(C2CCCCC2)c2ncn3nc(-c4ccccc4)nc3c12	-0.31	-1.5
Cc1ccc(SCC(=O)NCc2cccs2)cc1	.	-1.8
Cc1ccc(N2CC(C(=O)Nc3nnc4n3CCS4)CC2=O)cc1C (stereo not drawn)	0.45	.
Clc1ccc(-c2noc3ncnc(NCc4cccnc4)c23)cc1	-0.13	-0.98
CCOC(=O)C1=C(C)OC(N)=C(C#N)C1c1ccc(C(C)C)cc1 (stereo not drawn)	.	-0.55
COc1ccc(-c2n[nH]c3c2C(c2ccccc2)NC3=O)cc1 (stereo not drawn)	-1.9	.
Fc1cccc(CN2CCN(Cc3ccccn3)CC2)c1	0.67	-1.1
CC(C)(C)OC(=O)NCC(=O)NNC(=S)NCc1ccccc1	.	-1.7
O=C(Nc1ccc(Br)cc1)C1CCCN1S(=O)(=O)c1cccc2cccnc12 (stereo not drawn)	.	-0.43
CCN1C(=O)C2(/C(=C(/O)c3ccc(C)c(F)c3)C(=O)C(=O)N2CCCN(C)C)c2ccccc21 (stereo not drawn)	0.3	1.7
Nc1ccc(-c2nc3cc(N)ccc3n2CCO)cc1	.	-0.99
Cc1c(NC(=O)CN(c2ccccc2)S(=O)(=O)N(C)C)c(=O)n(-c2ccccc2)n1C	2.1	-1.2
Cc1cc(S(=O)(=O)c2ccc(Cl)cc2)sc1C(=O)NCC(O)c1ccccc1 (stereo not drawn)	.	0.76
Cc1cn2c(=O)cc(COc3ccccc3C)nc2s1	1.4	-2.5
CC1CC(C)CN(C(=O)Cn2ncc3c([nH]c4ccccc43)c2=O)C1 (stereo not drawn)	0.67	.
COCCCn1c(CCC(=O)O)ccc1-c1cccs1	-0.76	-1
COc1ccc(Cc2nnc3n2N=C(c2ccc(Cl)cc2)CS3)cc1OC	1.2	.
CC(Nc1ncnc2ccccc12)C(=O)O (stereo not drawn)	0.48	-0.41
Next section.
SMILES	HIV TAR-Tat	CDC25B CDK2 inh
COc1cc(C2C3=C(CC(C)(C)CC3=O)NC3=C2C(=O)CC(C)(C)C3)ccc1O	1.1	-0.34
CN(C)CC(=O)Nc1c2c(nc3c1CCC3)CCCC2	.	-0.72
O=C1CCc2cc(S(=O)(=O)N3CCC(C(=O)Nc4ccc(Cl)cn4)CC3)ccc2N1	.	-0.86
CCOC(=O)N1CCC(NC(=O)CCC(=O)N2CC(C)Oc3ccccc32)CC1 (stereo not drawn)	0.75	-1.1
CCc1nnc(SC(CC)C(=O)Nc2ccccc2F)c2cc3oc(C)cc3n12 (stereo not drawn)	3.3	.
CCN(CC)C(=O)Cn1c(=O)n(CC2CCC(C(=O)N3CCCC3)CC2)c(=O)c2sccc21 (stereo not drawn)	1.6	.
CC(C[N+](C)(C)C)OC(N)=O (stereo not drawn)	1.9	-0.99
O=C(OCc1cc(=O)n2nc(C3CCCCC3)sc2n1)c1ccc2c(c1)OCO2	-0.71	.
CCOC(=O)c1oc2c(c1C)C(=O)CCC2	1.5	-0.85
Cn1c(=O)c2c(-c3ccccc3)n3c(c2n(C)c1=O)C(c1ccccc1O)OCC3(C)C (stereo not drawn)	1.5	1.4
Fc1cccc(CN2CCC(N3CCCC3)CC2)c1	-0.52	0.13
CCc1ccc(C2C(C(=O)OCCOC)=C(C)NC3=C2C(=O)CC(c2ccccc2)C3)cc1 (stereo not drawn)	2.3	-0.54
CNc1sc(S(C)(=O)=O)nc1S(=O)(=O)c1ccc(Cl)cc1	1.2	-1
CC1CCN([C@H]2CS(=O)(=O)C[C@@H]2S(=O)(=O)c2ccc(Cl)cc2)CC1	1.2	0.29
Cc1ccc(NS(=O)(=O)c2c(C)nc3sc4ccccc4n3c2=O)c(Cl)c1	1.3	.
Cc1nn(C)c(C)c1S(=O)(=O)NCc1cccn1Cc1cccc(F)c1	0.1	.
Cc1cc(NC(=O)c2sc3nc4n(c(=O)c3c2C)CCCCC4)no1	1.1	.
CN(C)NC(=O)Nc1csnc1-c1c(Cl)cccc1Cl	.	0.09
CC(=O)Oc1c(C)cccc1C(=O)O	.	-2.6
Cc1nc2ccccc2c2c1C(=O)N(c1ccccc1F)C2=O	1.3	-0.41
Cc1ccccc1-n1c(C)c(C)c2c1ncn1nc(-c3cccnc3)nc21	0.25	-0.98
Cc1ccc(Nc2c(-c3ccc(Cl)cc3)c(=O)c2=O)cc1F	0.52	.
CC1(C(=O)NC2CCCC2)Cn2c(nc3ccccc32)C(=O)N1Cc1ccccn1 (stereo not drawn)	1.6	.
O=C(NCc1cccs1)c1n[nH]c2c1CCCC2	.	-1
COc1ccc(Cl)cc1NS(=O)(=O)c1ccc(-c2cnc(C3CC3)o2)cc1	1.5	.
O=S(=O)(NCCc1nnc2ccc(SCc3cccc4ccccc34)nn12)c1ccccc1	0.61	.
COC(=O)c1cccnc1-n1c(=O)c2cccnc2n(Cc2ccc(C#N)cc2)c1=O	.	-0.76
Cc1ccc(NC(=O)C2CCCN(S(=O)(=O)c3c(C)noc3/C=C/c3cccs3)C2)nc1 (stereo not drawn)	.	-2.4
CN(C)c1ccc(-n2nnnc2SCC(=O)c2cc3ccccc3o2)cc1	.	-0.59
O=c1[nH]oc(O)c1-c1ccccc1	.	0.37
CCOCCCNC(=O)C(C)n1nc(C)c2sc3ccccc3c2c1=O (stereo not drawn)	4.5	-2.4
CCC(C)NC(=O)Cn1c(=O)c2ccccc2n(CC)c1=O (stereo not drawn)	.	-2.4
COC(=O)c1ccc(S(=O)(=O)N(C)C2CCCCC2)o1	.	-1.5
CCc1ccc(-c2cc(C)no2)cc1S(=O)(=O)NC1CCCCC1	0.68	.
CCSc1ncc2c(=O)n(C(CC)C(=O)N3CCC(C)CC3)cnc2n1 (stereo not drawn)	0.49	.
COc1ccc(OCCSc2nnnn2C2CCCCC2)cc1	-0.37	-0.36
CCOC(=O)C1=C(C(=O)OCC)SC(=C2C(=S)C(C)(C)Nc3cc(C)ccc32)S1	-0.02	17*

Structural class, those above containing an aryl thioether with sulfur outside any ring.
SMILES	HIV TAR-Tat	CDC25B CDK2 inh
CCOC(=O)C1=C(C)Nc2nc(SCC)nn2C1c1ccc(Cl)cc1 (stereo not drawn)	-0.66	-1
O=C(Cn1cc(SCc2ccccc2Cl)c2ccccc21)N1CCCC1	-1.1	.
Cn1c(SCc2nc(-c3ccc(Br)cc3)no2)nnc1-c1ccco1	0.26	-1.2
CSc1ncc(Cl)c(C(=O)N(Cc2ccc(C)cc2)C2CCS(=O)(=O)C2)n1 (stereo not drawn)	2.2	-1.6
CN(C)CCNC(=O)c1[nH]c2ccccc2c1Sc1ccc(Cl)cc1	3.3	-1.1
Cc1cc(C(=O)O/N=C(\N)CSc2ncccc2C(F)(F)F)no1	.	-1.3
CSc1cccc(NS(=O)(=O)c2ccc3c(c2)CC(C)N3C(=O)C2CCC2)c1 (stereo not drawn)	-1.4	.
Cc1ccc(SCC(=O)NCc2cccs2)cc1	.	-1.8
CCc1nnc(SC(CC)C(=O)Nc2ccccc2F)c2cc3oc(C)cc3n12 (stereo not drawn)	3.3	.
O=S(=O)(NCCc1nnc2ccc(SCc3cccc4ccccc34)nn12)c1ccccc1	0.61	.
CN(C)c1ccc(-n2nnnc2SCC(=O)c2cc3ccccc3o2)cc1	.	-0.59
CCSc1ncc2c(=O)n(C(CC)C(=O)N3CCC(C)CC3)cnc2n1 (stereo not drawn)	0.49	.
COc1ccc(OCCSc2nnnn2C2CCCCC2)cc1	-0.37	-0.36
